# Vaccinia Venus: inhibitors of vaccinia virus (Venus reporter); Vaccinia virus Venus reporter expression, fluorescence; Potency, µM (titrated, usually from 36.5 µM), without a hit: at the highest dose activity change, negative = inhibition, most hits filed as inhibitors; hit rate 0.46% among 330,000; active means well fitted inhibition curve with a large enough effect; inconclusive means small, poorly fitted or top-dose-only effect; inactive means no such curve, though single readings can be large or run the other way; tested in A549 cells; also: nearly all actives have a fitted effect of over 30% in size; inactives centre near -10
# Vaccinia mCherry: vaccinia inhibition (mCherry reporter); Vaccinia virus mCherry reporter infection, fluorescence; about a quarter of the inactives have no number; AID 720579; hit rate 0.63% among 310,000; Potency, µM (series often up to 36.5 µM), without a hit: at the top dose activity change, negative = inhibition, usual class: inhibitors; active = well fitted inhibition curve with a large enough effect; inconclusive = small, poorly fitted or top-dose-only effect; inactive = no such curve, though single readings can be large or run the other way; tested in A549 cells; also: nearly all actives have a fitted effect of over 35% in size; inactives centre near -10
# * marks the source's active call; other numbers are inactive results; i = inactive; ? = inconclusive; / = not tested or not shown; & = joins results of further samples; [ ] = another dose, or the depositor's remark. % is scaled to controls: 0 for no effect and ±100 for the full control effect; potency is read from the fitted curve at half-maximal effect.
# Below each compound: Vaccinia Venus | Vaccinia mCherry
- O=C(Cc1ccc([N+](=O)[O-])cc1)Nc1ccc(Br)cn1
→ -19.4% | ?
- COC(=O)C1CCN(C(=O)COC(=O)C2CCN(S(=O)(=O)c3c(Cl)cccc3Cl)CC2)CC1
→ -17.9% | -18.3%
- CCN1CCN(c2nc3sc4c(c3c3ncnn23)CC(C)CC4)CC1 (stereo not drawn)
→ -17.8% | /
- c1ccc(-c2nc3ccccc3c3nncn23)cc1
→ -11.4% | -14.9%
- O=C(Nc1ccc2nc3n(c(=O)c2c1)CCCCC3)C(=O)N1CCN(c2ccccc2)CC1
→ -14.0% | -12.3%
- COc1ccc(N/C=C(\C2OC(=O)c3ccccc32)[N+](=O)[O-])cc1 (stereo not drawn)
→ -0.3% | -16.8%
- COCC(=O)OCn1nnc2ccccc2c1=O
→ -22.8% | -26.3%
- C[C@](N)(Cc1ccc(O)c(O)c1)C(=O)O
→ -8.9%&-26.6% | -5.2%&-12.1%
- COc1cc(NC(=O)Cc2noc3ccccc23)cc(OC)c1OC
→ -7.7% | -11.1%
- COc1ccc(CCNC(=O)Nc2ccc3c(c2)c(=O)n(C)n3Cc2ccc(F)cc2)cc1OC
→ 1.2% | -16.4%
- O=c1c2ccccc2nc(COc2ccccc2)n1/N=C/c1c[nH]c2ccccc12
→ -6.4% | i
- CCOc1cccc(C2C(C#N)=C(N)Oc3cc(C)n(Cc4ccccn4)c(=O)c32)c1OCC (stereo not drawn)
→ -8.5% | /
- Cc1cc(C(=O)OCC(=O)Nc2ccccc2F)c(C)o1
→ -19.1% | -7.6%
- Cc1cccc(OCC(=O)Nc2nnc(-c3ccco3)s2)c1
→ 0.6% | i
- CN1CCN(S(=O)(=O)c2ccc(C(=O)NC3CCCCC3)cc2)CC1
→ -9.8% | i
- COc1cc(/C=N/NC(=O)CC2(C)OCCCO2)ccc1OCc1ccc(Cl)cc1Cl
→ -13.1% | -21.4%
- COC(=O)c1c(NC(=O)c2nc(SCc3ccc(C)cc3)ncc2Cl)sc2c1CCCC2
→ -8.8% | -11.5%
- COc1ccccc1C(=O)NNC(=O)c1ccc(NS(=O)(=O)c2cccs2)cc1
→ -12.2% | i
- O=C(CSc1nnc2scc(-c3ccccc3)n12)Nc1ccc(Cl)cc1
→ -0.1% | -9.6%
- Cc1cc(C(=O)OCC(=O)NC(=O)NC(C)(C)C)c(C)o1
→ -16.3% | /
- CON(C)S(=O)(=O)c1ccc2c(c1)N(Cc1ccc(C)cc1)C(=O)C1CCCN21 (stereo not drawn)
→ -13.3% | -1.6%
- C[C@H](CO)N1C[C@H](C)[C@@H](CN(C)Cc2ccccc2)OCc2cnnn2CCCC1=O
→ -11.2% | -9.9%
- CCC(C)(C)n1nnnc1C(CC(C)C)N1CCC(C(N)=O)CC1 (stereo not drawn)
→ -5.8% | /
- CSC1=NSC2=NC(=O)/C(=C\c3ccc(OC(=O)c4ccco4)cc3)C(=N)N12
→ -5.5% | -8.4%
- CCN1CCN(C(=O)c2ccc(C(F)(F)F)cc2)CC1
→ -3.3% | -14.2%
- CC(C)(C)NC(=O)CSC(=Nc1cccc(F)c1)NC#N
→ 8.4% | -4.7%
- COc1ccc(OC)c(Nc2nc(-c3ccc(C)cc3)nc3ccccc23)c1
→ 4.5%[7.34 µM] | -6.1%[7.34 µM]
- CCc1ccccc1N1CC23C=CC(O2)C(C(=O)O)C3C1=O (stereo not drawn)
→ 1.3% | -0.2%
- O=C(CSc1nnc(CNC(=O)c2c(F)cccc2Cl)o1)Nc1cccc(F)c1
→ -6.0% | -5.3%
- COc1ccc(C(=O)c2nccc3cc(OC)c(OC)cc23)cc1OC
→ -2.5% | -11.2%
- O=C(NCC1CCCO1)C1CCN(S(=O)(=O)c2cccnc2)CC1 (stereo not drawn)
→ -2.3% | /
- COC(=O)c1c(N)n(-c2cc(Cl)cc(Cl)c2)c2nc3ccccc3nc12
→ -5.0% | -11.4%
- O=C(NCC1CCCO1)C(=O)N/N=C/c1ccc(O)c(Cl)c1 (stereo not drawn)
→ -15.2% | ?
- O=C(CSC1=N/C(=C/c2ccc(Cl)c(Cl)c2)C(=O)N1c1ccccc1F)NC1CC1
→ -4.7% | -14.8%
- Cc1cc(C)n2cc(COc3ccc4ccccc4c3)nc2n1
→ -4.7% | -21.4%
- O=C(c1ccco1)N(Cc1cccnc1)c1nc2ccc(F)cc2s1
→ -1.5% | -13.1%
- O=C1/C(=C/c2cccnc2)Oc2cc(OS(=O)(=O)c3ccc(Cl)cc3)ccc21
→ -1.5% | -7.3%
- COC(=O)c1c(-c2cccs2)csc1NC(=O)c1ccc(Br)cc1
→ 7.3% | 5.6%
- CC(=O)C[C@@H](O)CC(=O)[C@@H]1OC(=O)[C@@H](C)C/C=C\Cc2ccccc21
→ 2.6% | i
- Cc1noc(C)c1NC(=O)N(C)C[C@@H]1Oc2c(NC(=O)c3ccncc3)cccc2C(=O)N([C@H](C)CO)C[C@@H]1C
→ -0.5% | i
- CC(Sc1ccccc1)C(=O)NN=C1CCN(C)CC1 (stereo not drawn)
→ -4.8% | 0.2%
- O=C(/C=C/c1ccc(F)cc1)N1CC[C@@]2(O)CCCC[C@H]2C1
→ -20.2% | -12.1%
- Cc1ccc(S(=O)(=O)N(C)CC(=O)OCC(=O)c2ccc3c(c2)NC(=O)CO3)cc1
→ -13.5% | i
- O=S1(=O)C[C@H](N2CCC(Cc3ccccc3)CC2)[C@@H](COCc2ccccc2)N1
→ 1.5% | i
- COc1cc(C(=O)NC(=S)Nc2ccc3c(c2)C(=O)N(C)C3=O)cc(OC)c1OC
→ -0.8% | -10.0%
- O=C1c2ccccc2C(=O)c2c1cccc2N1CCOCC1
→ -4.7% | -18.9%
- CC(=O)c1ccc(NC(=O)C2Cc3ccccc3CN2C(=O)c2ccccc2)cc1 (stereo not drawn)
→ -4.7% | -3.6%
- COc1ccc(NC(=O)CN2C(=O)/C(=C3\SC(=S)N(C4CCS(=O)(=O)C4)C3=O)c3ccccc32)cc1 (stereo not drawn)
→ 0.4% | -18.1%
- COCCCn1cc(CN2CC(N3CCCCC3)CS2(=O)=O)nn1 (stereo not drawn)
→ 9.9% | 26.0%
- COc1ccc(NC(=O)CN(C)S(=O)(=O)c2ccc(C(=O)N3CCOCC3)s2)cc1
→ 4.7% | -4.5%
- COc1ccccc1N(C)S(=O)(=O)c1ccc(C(=O)N2CCCC(C(F)(F)F)C2)cc1 (stereo not drawn)
→ -12.4% | i
- Cc1ccc(CNC(=O)c2ccc(N3CCC4(CC3)CC(c3ccccc3)=NO4)c(NC(=O)c3c(Cl)cccc3Cl)c2)cc1
→ 3.5% | -6.8%
- COc1cc(/C=C/CN2CCOc3ccc(C(O)c4cccnc4)cc3C2)ccc1O (stereo not drawn)
→ -6.6% | -14.0%
- CN(C)c1ccc(/C=C/c2sc3ccccc3[n+]2C)cc1
→ 66.9%[activator] | -11.3%
- CCOc1ccc(CNC(=O)c2cc3c(s2)-c2ccccc2OC3)cc1
→ 1.6% | -2.8%
- O=C(N/N=C/c1ccc2c(c1)OCO2)/C(=C/c1ccc2c(c1)OCO2)NC(=O)c1ccccc1
→ -14.7% | -11.5%
- O=C(CSc1nc2ccccc2n1CCc1ccccc1)NC1CCS(=O)(=O)C1 (stereo not drawn)
→ -10.5% | i
- COc1ccc([C@H]2/C=C\CN(C(=O)[C@H](Cc3ccccc3)NC(=O)OCC3c4ccccc4-c4ccccc43)CC(=O)N2Cc2ccc(F)cc2)cc1
→ -11.2% | -1.9%
- COc1ccc(C2Sc3nncn3N2Cc2ccc(C#N)cc2)cc1 (stereo not drawn)
→ -7.5% | i
- O=c1cc2c(nn1Cc1cccc(Cl)c1)-c1ccccc1CC2
→ -11.0% | -13.8%

# Other entries follow.
# Below each compound: Vaccinia Venus | Vaccinia mCherry
- CCc1c(C)nc(SCC(=O)c2cccs2)c(C#N)c1C
→ -20.7% | -25.2%
- CN(C)Cc1csc(NC(=O)Nc2ccccc2Oc2ccccc2)n1
→ -20.5% | 8.7%
- CCCCc1c(C)nc2ccccc2c1SCCC#N
→ -20.0% | i
- O=C(NC1CCN(C(=O)NC2CCCCC2)CC1)c1ccco1
→ -20.2% | i
- CSc1ccccc1C(=O)C1CCCN(C(=O)c2ccc(N3CCOCC3)cc2)C1 (stereo not drawn)
→ -8.3% | i
- CCCc1cc(=O)oc2cc(C)cc(OCC(=O)NC(Cc3c[nH]c4ccc(O)cc34)C(=O)O)c12 (stereo not drawn)
→ 0.2% | -6.2%
- CCSC1=N/C(=C\c2ccc(OC)cc2)C(=O)N1
→ -20.8% | -9.6%
- CC1Cc2cc(S(=O)(=O)N3CCN(c4ccccc4F)CC3)ccc2N1C(=O)C1CCC1 (stereo not drawn)
→ -11.0% | -1.5%
- CCN1C(=O)CSC1=NC12CC3CC(CC(C3)C1)C2
→ -14.7% | -9.3%
- CC1Cc2ccccc2N1C(=O)COC(=O)CSc1ccc(F)cc1 (stereo not drawn)
→ -7.7% | i
- CC(C)N(Cc1ccccc1)C(=O)CCc1ccccc1
→ -11.0% | -2.7%
- CC1=CC=CC2=NC(=O)CC(C)(C(=O)N(CC(=O)NC(C)C)C3CCCC3)N12 (stereo not drawn)
→ -8.4% | -4.8%
- CCCn1c(N2CCN(C(=O)Nc3ccccc3)CC2)nc2ccccc21
→ -12.7% | -13.8%
- CCOc1cc(/C=N/O)ccc1OCc1ccc([N+](=O)[O-])cc1
→ -28.4% | -1.8%
- O=C(CNC(=O)c1ccc(Cl)cc1)NCC(F)(F)F
→ -5.6% | -14.1%
- Cn1cccc1/C=C1\SC(=O)N(c2ccc(O)cc2)C1=O
→ 4.5% | -13.0%
- Cc1nc2scc(C)n2c(=O)c1S(=O)(=O)NCc1ccccc1Cl
→ 8.0% | -7.5%
- COc1ccc(/C=N/NC(C)(C)C)c(OC)c1
→ -7.8% | -8.3%
- CCCn1c(SCC(=O)Nc2nnc(-c3ccccc3)s2)nnc1-c1ccccn1
→ -8.2% | -5.5%
- CCc1ccccc1NC(=O)c1cnccn1
→ -3.4% | -9.5%
- COc1ccc(-c2cc3nc(C)cc(N4CCN(C(=O)c5ccoc5)CC4)n3n2)cc1
→ -0.5% | -1.7%
- CC(OC(=O)Cn1cnc2c1c(=O)n(C)c(=O)n2C)C(=O)NCc1ccccc1 (stereo not drawn)
→ 5.0% | 0.8%
- CC(=O)c1cccc(-c2ccnc3c2CC(C(=O)NCc2ccccc2)O3)c1 (stereo not drawn)
→ ? | ?
- CCOC(=O)C1CCCCN1Cc1ccc(C(F)(F)F)cc1 (stereo not drawn)
→ -3.1% | /
- O=C(CCc1ccc(O)cc1)N/N=C/c1coc2ccccc2c1=O
→ -8.3% | -8.0%
- CCCOc1ccc(C(=O)Nc2cccc(NC(=O)c3cccc(Cl)c3)c2)cc1
→ -25.2% | -15.9%
- O=C(COCc1cc(-c2cccs2)on1)NCc1cccc(Cl)c1
→ -0.4% | -13.3%
- O=[N+]([O-])c1ccc(/C=N/Nc2cc(Cl)nc(-c3ccccc3)n2)cc1
→ 0.5% | -3.0%
- CCN1CCOC(=O)C1CC(=O)Nc1cc(Cl)ccc1OC (stereo not drawn)
→ -6.2% | -9.0%
- CCOCCCNc1nc2c(-c3ccccc3)nnn2c2ccccc12
→ -11.2% | -19.6%
- Cc1ccccc1CN1C(=O)c2ccccc2Sc2ccc(C(=O)OCc3ccco3)cc21
→ 11.4% | -9.6%
- COC(=O)c1ccc(C2c3c(oc4ccccc4c3=O)C(=O)N2c2nc(C)c(C(=O)OC)s2)cc1 (stereo not drawn)
→ 5.6% | 1.2%
- Cc1ccc(C)c(N(CC(=O)NC2CCCC2)S(=O)(=O)c2ccccc2)c1
→ -8.7% | i
- COc1ccccc1N1CC(C)(C)C(=O)N(C(=O)c2ccc(Cl)cc2)C1=S
→ ? | ?
- Cc1nn(C(=O)c2ccccc2)c(C)c1Sc1ccc(Cl)cc1
→ -17.2% | -8.3%
- CSc1cccc(NC(=S)N(Cc2ccc(C)cc2)Cc2cccnc2)c1
→ -17.1% | ?
- CCOc1ccc(C(=O)OC(C)CN2CCN(C)CC2)cc1 (stereo not drawn)
→ -5.6% | -2.3%
- CCN1C(=NCc2cc(OC)c(OC)c(OC)c2)N[C@@H](c2ccccc2)C(C(=O)OC)=C1C
→ -13.3% | -7.6%
- O=C(Nc1cccc(C(F)(F)F)c1)C1CC(=O)N(Cc2ccco2)C1 (stereo not drawn)
→ -8.4% | -10.5%
- O=C(NCc1ccco1)C1CC(c2ccc(C(F)(F)F)cc2)=NO1 (stereo not drawn)
→ -23.2% | -12.4%
- CCOC(=O)C1CCN(/C=C2\C(=O)NC(=S)N(CC)C2=O)CC1
→ -12.9% | -0.5%
- Cc1ccc(-c2csc(NC(=O)C3CCN(S(=O)(=O)c4cccs4)CC3)n2)cc1
→ -28.9% | ?
- CCc1ccc(C(=O)NC(Cc2c[nH]c3ccccc23)C(=O)OCC(=O)c2ccc(Br)cc2)cc1 (stereo not drawn)
→ -6.2% | -21.1%
- Cc1ccccc1C(=O)Nc1ccc(C(=O)OCc2cc(=O)n3nc(C4CC4)sc3n2)cc1
→ -24.4% | ?
- CCc1nc(N2CCOCC2)c(C#N)c2c1CCCC2
→ -14.8% | -19.7%
- CC(C)(C)c1ccc(Cn2nnc3c(=O)[nH]c(C4CCN(C(=O)c5ccco5)CC4)nc32)cc1
→ ? | -3.4%
- CN=Cc1cc(-c2ccccc2)sc1O
→ -12.4% | -2.3%
- CN1CCC(OC(=O)COc2ccc(F)cc2)CC1
→ -3.9% | i

# Profiles, quoted from the list. Order of values: Vaccinia Venus	Vaccinia mCherry
# Cc1ccccc1CN1C(=O)c2ccccc2Sc2ccc(C(=O)OCc3ccco3)cc21 across the screens: 11.4%	-9.6%
# Cc1ccccc1C(=O)Nc1ccc(C(=O)OCc2cc(=O)n3nc(C4CC4)sc3n2)cc1 across the screens: -24.4%	?
